# Calb FLC: C. albicans growth inhibition with fluconazole, primary screen, CaCi-2 strain, Alamar Blue fluorescence. 0.57% of 300,000 active. growth inhibition, % (concentration not given with the values). C. albicans CaCi-2 (fluconazole-resistant clinical isolate) + fluconazole, 48 h;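 active = most replicates above 75%; inconclusive = exactly half above 75%; inactive = most below 75%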;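 note: all wells also contain fluconazole at 8 µg/ml as a sub-toxic cotreatment; 0% = median of DMSO wells and 100% = median of geldanamycin control wells; wells of about 8 µL received 7.5 nL stock; the first replicate is given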
# HNF4A DNA FP: change in binding of human HNF4A to DNA, primary screen, biochemical, fluorescence polarization, FITC-DNA; activity change, % at 10 µM; 0.3% of 360,000 active; Hepatocyte nuclear factor 4-alpha (Homo sapiens), P41235; 1 h; AID 1224865, 2016; in the data active = activity change above about 30%, passing the limit was not always enough;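 note: controls were the assay level and a saturating level of protein; the project sought stronger binding though the title names inhibitors; some compounds called inactive have numbers as strong as hits; positive values seem to mean higher polarization but the record does not say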
# Target sequence (P41235 whole entry, looked up): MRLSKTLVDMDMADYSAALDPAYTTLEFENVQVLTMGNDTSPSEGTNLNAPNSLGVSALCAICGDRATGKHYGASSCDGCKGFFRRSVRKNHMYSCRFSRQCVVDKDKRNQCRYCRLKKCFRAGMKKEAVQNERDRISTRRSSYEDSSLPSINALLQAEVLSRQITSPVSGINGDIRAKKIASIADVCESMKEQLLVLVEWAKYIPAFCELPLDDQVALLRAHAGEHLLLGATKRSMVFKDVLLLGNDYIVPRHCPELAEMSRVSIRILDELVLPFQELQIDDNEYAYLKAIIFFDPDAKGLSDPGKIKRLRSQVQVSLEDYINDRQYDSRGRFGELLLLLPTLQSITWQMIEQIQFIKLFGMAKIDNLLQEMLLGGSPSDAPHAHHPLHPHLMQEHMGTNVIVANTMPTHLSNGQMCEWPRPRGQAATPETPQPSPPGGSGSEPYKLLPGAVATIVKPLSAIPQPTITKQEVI
# Beta2AR agonist: beta2AR agonists driving receptor internalization, primary screen, cell-based, FAP fluorogen, flow cytometry | 0.43% of 340,000 active | Beta-2 adrenergic receptor (Homo sapiens), P07550 | Am2.2-beta2AR cells; reference of the scale not given here | response, % (no concentration beside the values);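 active = response above a set limit, near 3 SD of response in nonfluorescent compounds, cut at about 42% in these data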;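 note: stock transfer was 100 nL into about 11 µL; a reference agonist was the positive control; negative values mostly stem from fluorescent compounds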
# Target sequence (P07550 whole entry, looked up): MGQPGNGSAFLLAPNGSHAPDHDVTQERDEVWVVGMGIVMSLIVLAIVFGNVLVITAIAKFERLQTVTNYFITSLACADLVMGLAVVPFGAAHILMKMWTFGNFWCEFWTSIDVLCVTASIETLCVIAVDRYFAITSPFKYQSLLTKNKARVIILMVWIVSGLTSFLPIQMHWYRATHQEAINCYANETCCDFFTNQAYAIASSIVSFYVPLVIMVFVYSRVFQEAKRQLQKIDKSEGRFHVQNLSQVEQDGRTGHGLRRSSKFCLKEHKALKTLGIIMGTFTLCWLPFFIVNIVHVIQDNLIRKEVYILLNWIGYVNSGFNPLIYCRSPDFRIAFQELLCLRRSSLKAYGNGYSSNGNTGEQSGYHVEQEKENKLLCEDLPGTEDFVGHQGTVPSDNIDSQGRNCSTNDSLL
# Vif A3G: inhibitors of Vif binding to APOBEC3G peptide, primary screen, biochemical, TR-FRET, GST-Vif 1-94, biotin-A3G peptide, dose response retest (AID 1117319); Virion infectivity factor (Human immunodeficiency virus type 1 group M subtype B (isolate …; inhibition, %; hits with a dose series show IC50 in µM; 0.57% of 260,000 active; TR-FRET GST-Vif / biotin-A3G peptide binding; higher % means a stronger effect; test concentration not given here; strong numbers were not always called active;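 active = above the screen mean plus three standard deviations and confirmed in dose response; inconclusive = results disagree or hit not tested in dose response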;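 note: Vif residues 1-94 fused to GST binding biotinylated APOBEC3G peptide 110-148; 0% = full assay without inhibitor and 100% = GST in place of GST-Vif; retest series ran down from 100 µM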
# RanGTP-Impb inh: inhibitors of RanGTP-importin-beta interaction, primary screen, biochemical, FRET, CFP-Ran, YFP-importin-beta, homogeneous. Ran GTPase (GTP-bound) - importin-beta complex. cell-free CFP-Ran/YFP-importin-beta FRET ratio. inhibition, % (no concentration beside the values). 1.1% of 300,000 active. AID 2216, 2009;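 active = most replicates above 15%; inconclusive = exactly half above 15%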;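 note: 0% = DMSO wells and 100% = Ran loaded with GDP instead of GTP; wells of about 40 µL received 100 nL stock; the first replicate is given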
# ALR inh: inhibitors of human ALR sulfhydryl oxidase, primary screen, biochemical, H2O2 detection, HRP-luminol luminescence, single point. FAD-linked sulfhydryl oxidase ALR (Homo sapiens), P55789. purified ALR, DTT oxidation. inhibition, % (test concentration not listed). 3.8% of 290,000 active;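 active = mean and each replicate at 75% or more; inconclusive = only one of the two met; inactive = neither met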;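 note: stock transfer was 7.5 nL into about 7.5 µL; 0% = neutral wells and 100% = wells with inactivated enzyme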
# Target sequence (P55789 whole entry, looked up): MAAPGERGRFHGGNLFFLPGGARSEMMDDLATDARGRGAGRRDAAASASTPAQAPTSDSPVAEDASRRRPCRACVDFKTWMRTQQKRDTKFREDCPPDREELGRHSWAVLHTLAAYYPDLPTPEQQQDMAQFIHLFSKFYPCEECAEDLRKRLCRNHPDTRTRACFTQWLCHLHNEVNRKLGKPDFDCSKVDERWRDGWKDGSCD
# LANA-H2A inh: blockers of LANA interaction with H2A/H2B – biochemical, FP readout, HTS, primary screen | cell-free LANA-H2A/H2B peptide, fluorescence polarization | AID 2629, 2010 | 0.6% of 320,000 active | inhibition, % (test concentration not listed); in the data active = inhibition mostly above about 10%, no sharp cut-off; inactive = mostly below about 6.7%;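 note: stock transfer was 7.5 nL into about 10 µL; 0% = median of vehicle wells and 100% = median of positive control wells; one replicate is shown; the record names a cut of 25% in any replicate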
# Numbers without * were called inactive; ? = inconclusive; . = no result given; & = joins results of further samples.
Compound	Calb FLC	HNF4A DNA FP	Beta2AR agonist	Vif A3G	RanGTP-Impb inh	ALR inh	LANA-H2A inh
O=C(NC1CCCN(Cc2ccccc2F)C1)c1cccc(N2CCCC2=O)c1 (stereo not given)	-40	4.3	-1	10%	1.0	3	3.3
O=C(CCN1C(=O)C2CCCCC2C1=O)Nc1ccc(OC(F)F)cc1 (stereo not given)	-10	1.3	0	3%	2.6	-8	1.2
Cc1nn(C)cc1-c1csc(N)n1	3	-0.5	-1	.	1.0	58	.
Cc1cccc(C(=O)Oc2cc(C)[nH]c(=O)c2[N+](=O)[O-])c1	-2	3.0	-3	-3%	-0.6	-2	4.4
Cc1ccc(/C=N/Nc2cc(C)nc(NCc3ccccc3)n2)cc1	-13	1.4	5	.	1.4	.	-0.8
CCOC(=O)c1ccc(NC(=O)NC2CC3CCC(C2)N3)cc1 (stereo not given)	-5	1.0	-15	-6%	3.6	.	1.2
CC(=O)Nc1ccc(S(=O)(=O)c2ccc(C)cc2)cc1	-10	34*	-10	6%	3.2	-5	1.4
CCCn1c(N2CCN(CC(=O)NCc3cccs3)CC2)nc2ccccc21	27	-1.2	-15	5%	-2.9	-20	-2.4
Cc1ccc(N(C(=O)c2csnn2)C(C(=O)NC2CCCCC2)c2ccccn2)cc1C (stereo not given)	2	0.5	4	.	-0.3	-1	0.2
CCCCn1c(SCc2nc3ccccc3s2)nc2cc(S(N)(=O)=O)ccc21	10	6.7	-9	5%	-1.6	-2	0.5
O=C(Oc1c(Br)cc(C(=S)N2CCOCC2)cc1Br)c1ccc(Cl)cc1	-2	0.8	10	13%	17*	-2	11
O=C(O)CC/C(=N\NC(=O)c1ccncc1)c1ccccc1	8	-0.6	-10	.	5.4	-7	-4.6
Cc1[nH]c2ccccc2c1C(=O)C(=O)NCCOc1ccccc1	-2	-2.3	-5	5%	1.2	-7	-2.2
N/C(=N\OC(=O)c1ccccc1)c1ccncc1	-5	-7.2	15	0%	1.9	1	-3.4
COc1ccc(CCN(C)C(=O)COc2cccc(-n3cnnn3)c2)cc1OC	.	-1.4	-3	-1%	.	-14	-1.5
Cc1ccc(S(=O)(=O)NCc2ccccc2)s1	3	-1.4	7	.	1.1	2	-0.9
CC1CC(C)CN(S(=O)(=O)CCNC(=O)c2ccc3c(c2)OCO3)C1 (stereo not given)	-10	0.3	-2	4%	-4.7	0	-6.3
CCC(=O)Nc1nc2ccc3sc(C)nc3c2s1	0	-0.8	-15	.	-0.9	-26	-0.8
CC1O[C@@H](OC2C(O)C(O)C(CO)O[C@H]2OC2C[C@]3(C)C(CC(O)C4[C@@H]([C@]5(C)CC[C@@H](C(C)(C)O)O5)CC[C@]43C)[C@@]3(C)CCC(O)C(C)(C)C23)C(O)C(O)C1O (stereo not given in full)	.	-2.3	1	.	.	-3	8.0
N#C/C(=C\c1cccc(OC(=O)c2cccs2)c1)C(N)=O	-4	1.1	-19	-5%	-3.6	4	0.3
N#Cc1ccccc1NC(=O)CSc1nnc(-c2ccccc2O)n1-c1ccccc1	-1	1.1	-19	-5%	6.0	0	3.8
C=CCOC(=O)C1=C(C)NC(C)=C(C(=O)OCC=C)C1/C=C/c1ccccc1	6	-2.9	-15	5%	?	2	-0.7
COc1cccc(-c2cc(C(=O)N/N=C/c3ccco3)c3ccccc3n2)c1	-1	-1.4	1	7%	11	-8	-2.7
Cn1nccc1C(=O)NC1CCCc2c1cnn2-c1ccc(C(C)(C)C)cc1 (stereo not given)	-4	0.1	6	-2%	-2.6	-8	3.0
CCCn1c2ccccc2c2cnn(CC(=O)OC)c(=O)c21	-15	1.9	0	0%	-0.8	66	1.8

# More compounds
Compound	Calb FLC	HNF4A DNA FP	Beta2AR agonist	Vif A3G	RanGTP-Impb inh	ALR inh	LANA-H2A inh
CCN1CCN(CCCN(Cc2ccco2)C(=S)Nc2cc(Cl)ccc2C)CC1	-11	1.4	1	.	8.7	-5	1.6
N#Cc1nccnc1S(=O)(=O)c1cccs1	-9	.	19	5%	-0.3	31	-1.5
O=C(NC1CCS(=O)(=O)C1)c1c(NC(=O)C2COc3ccccc3O2)sc2c1CCCC2 (stereo not given)	11	-0.9	3	-1%&-8%	6.7	.	-1.7
C[C@H](CO)N1C[C@H](C)[C@@H](CN(C)S(C)(=O)=O)Oc2ccc(NS(=O)(=O)c3ccccc3)cc2C1=O	.	-4.8	4	.	.	-5	3.7
S=C(NCc1ccncc1)Nc1ccccc1	-12	2.4	-1	-4%	-0.2	3	-0.4
c1ccc2oc(CCc3nc4ccccc4o3)nc2c1	4	1.6	6	.	-1.9	-12	5.8
CC(=O)Oc1cccc2c1C(=O)C1CC=CC(OC(C)=O)C1C2=O (stereo not given)	.	-1.7	-9	2%	.	.	.
COc1ccc(-c2cnnc(N/N=C/c3ccc(C)o3)n2)cc1	28	-0.8	-11	22%	-0.3	-1	-1.4
Cc1cc(NC(=O)CSCC(=O)N2CCN(c3ccccc3)CC2)no1	.	-14	-3	0%	.	99*	8.8
O=C1CC(c2ccccc2)CC2=C1C(c1ccccn1)Nc1ccccc1N2 (stereo not given)	4	-4.4	8	2%	-2.5	23	4.6
Cc1nnc(N)nc1C	1	3.9	-3	15%	4.9	-1	-7.4
CN(CC(=O)Nc1ccccc1C(F)(F)F)C(=O)CSc1nnc(-c2ccncc2)n1C	.	0.5	-8	.	.	48	-2.7
Cc1cccnc1NC(=O)c1ccc(S(=O)(=O)N2CCCCCC2)cc1	0	3.6	-7	-2%	4.1	-3	4.5
Cc1ccccc1C(=O)NCCN1CCOCC1	0	1.2	5	1%	2.2	-17	2.9
COc1cccc(C2=NN(C(=O)c3ccco3)C(c3ccco3)C2)c1 (stereo not given)	-15	5.7	-28	.	12	6	-0.1
COc1ccc(NC(=O)c2cc(C(C)C)on2)c(OC)c1	-3	-0.6	-4	15%	1.4	.	0.9
Cc1ccc(S(=O)(=O)NCC(=O)OCC(=O)NCc2ccc3c(c2)OCO3)cc1	.	1.2	0	-7%	.	.	.
CCOC(=O)C1CCCN(C(=O)c2ccc3oc(CCc4ccccc4)nc3c2)C1 (stereo not given)	71	0.7	0	.	-0.5	-1	-1.2
CCOC(=O)[C@H]1[C@H]2COc3cc(OC)ccc3[C@@H]2N2C(=O)c3cc(OC)c(OC)cc3NC(=O)[C@@]12C	.	2.1	-1	.	.	.	-0.4
CC(=O)NCc1ccc(C(=O)CCl)s1	14	3.0	1	4%	-2.1	-2	4.5
O=C(CSc1nc2ncccc2[nH]1)Nc1ccc2c(c1)OCO2	15	5.2	-10	-4%	4.6	.	-3.0
S=c1[nH]c2ccccc2n1CCc1ccncc1	.	5.7	1	-11%	.	.	.
Cc1c(NC(=O)CC(O)(C(F)(F)F)C(F)(F)F)c(=O)n(-c2ccccc2)n1C	1	0.4	-1	-1%	2.6	-11	3.8
O=C(/C=C/c1ccc(Cl)c([N+](=O)[O-])c1)NCc1cccnc1	8	-1.6	-2	.	-0.8	-2	4.5
O=C1CC2(CCN(C(=O)C3CC(=O)N(c4ccc(F)cc4)C3)CC2)Oc2ccccc21 (stereo not given)	3	-1.7	-4	-1%	4.4	-2	-1.4

# Next part
Compound	Calb FLC	HNF4A DNA FP	Beta2AR agonist	Vif A3G	RanGTP-Impb inh	ALR inh	LANA-H2A inh
CCOC(=O)N1CCN(C(=O)CCc2cc(OC)c(OC)c(OC)c2)CC1	4	2.1	-1	.	-0.6	-13	7.8
O=C(NNc1nc2c(F)cccc2s1)C1=COCCO1	-4	1.7	-3	23%	-1.5	100*	-2.3
CC(=O)Nc1ccc(N2C(=O)CC(N3CC(C)OC(C)C3)C2=O)cc1 (stereo not given)	-6	21	0	17%	-1.6	-4	-11
COc1ccccc1C(=O)NCCC(=O)Nc1ccc(C)cn1	1	1.0	-7	-2%	2.1	0	-2.5
COc1ccccc1NC(=O)C1CCCN1C(=O)NCc1ccccc1 (stereo not given)	0	0.1	12	22%	?	.	4.6
COc1ccc(/C=C2\COc3ccccc3C2=O)c(OC)c1	17	4.2	-10	.	3.2	1	-2.8
Cc1ccc(-c2n[nH]c(=S)n2/N=C/c2c(C)[nH]n(-c3ccccc3)c2=O)cc1	-15	0.3	-5	6%	?	98*	-0.9
COc1ccc(CN(C(=O)CO/N=C/c2ccccc2)c2ccccc2C(=O)O)cc1	-1	-0.1	2	6%	?	8	1.4
CC(=O)Nc1ccc(C(=O)Nc2cc(C(F)(F)F)ccc2-n2cnc3ccccc32)cc1	-11	1.3	3	.	2.9	-1	0.3
CC(O)Cc1cn([C@@H](CCCCN)C(=O)N2CCNCC2)nn1 (stereo not given in full)	1	-3.8	-3	0%	-3.9	-1	2.3
O=C(/C=C/Nc1cccc(C(F)(F)F)c1)c1ccc(Oc2ncccn2)cc1	-2	1.0	-3	27%	1.8	-6	1.3
Oc1ccccc1CC=NC1CCCCC1	.	-1.0	-119	2%	.	.	.
CCN(CC)CCCNCC(=O)Nc1ccc2c(c1)CCC2	10	3.5	0	?	4.9	2	-4.1
CCCCCC(=O)N/N=C(\C)c1ccc(Cl)cc1	?	0.8	2	6%	-0.1	-1	3.5
CC(C)(C)C(=O)NC1(C(F)(F)F)C(=O)Nc2c1c(=O)[nH]c(=O)n2Cc1ccco1 (stereo not given)	9	0.7	2	12%	1.0	0	-0.8
O=C(CN1CCN(Cc2ccc(F)cc2)C1=O)NC1CCCC1	6	-2.4	11	8%	7.4	-7	-0.4
CCC(=O)NC(=S)Nc1ccccc1OC	-3	0.9	-4	0%	0.1	-5	0.9
O=C(/C=C/Nc1ccc(S(=O)(=O)Nc2cnc3ccccc3n2)cc1)c1cccnc1	-6	2.9	4	13%	-3.0	-3	5.5
Cc1c(C(=O)Nc2nc(-c3ccccn3)cs2)oc2ccccc12	.	-1.0	23	-8%	.	.	-2.3
COC(=O)c1ccc(/C=N/NC(=O)C2CC(=O)N(c3ccc(F)cc3)C2)cc1 (stereo not given)	-7	-2.2	1	.	-1.4	-28	13*
COc1ccc(Cl)cc1S(=O)(=O)n1c([N+](=O)[O-])cnc1C	1	1.5	-2	.	-0.2	-11	-0.6
CCOc1ccc(S(=O)(=O)N(CC(=O)O)c2ccc(C)cc2)cc1	-4	-4.6	-8	2%	-2.1	-3	3.4
CCOc1cc(N2CCOCC2)c(OCC)cc1NC(=O)Cn1cnc2c(=O)n(C)c(=O)n(C)c21	2	2.5	-2	.	-2.3	-28	-4.4
CCOC(=O)c1nncc(-c2ccccc2)n1	.	-3.5	24	.	.	-5	-1.0
CCOc1ccc(N(CC(=O)Nc2c(C)n(C)n(-c3ccccc3)c2=O)S(=O)(=O)c2ccc(F)cc2)cc1	41	3.6	1	.	-1.0	-3	-21

# Carrying on:
Compound	Calb FLC	HNF4A DNA FP	Beta2AR agonist	Vif A3G	RanGTP-Impb inh	ALR inh	LANA-H2A inh
Cn1c(Nc2ccccc2)cc(=O)n(C)c1=O	-15	0.6	-7	-6%	3.6	2	-2.3
C/C(=N\N1CCN(c2ccc(Cl)cc2)CC1)c1cccc([N+](=O)[O-])c1	34	-0.8	-7	5%	0.0	.	-6.8
NC(=O)c1ccc(NC(=O)CCNC(=O)c2ccco2)cc1	4	1.5	-7	-1%	1.1	4	-0.5
O=c1c2ccccc2nc2n1C(CSc1ccc(Cl)cc1)CN2 (stereo not given)	3	-1.7	-8	26%	1.2	-8	-6.1
